# Screening results as filed in PubChem.
# RecA intein inh – inhibitors of M. tuberculosis RecA intein splicing | inhibition, %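 (about 9 µM by stock and volumes)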 | 290,000 compounds, 0.75% hits | cell-free RecA intein splicing, fluorescence | AID 2221; in the data active means inhibition above about 30%; inconclusive means no clear call, values can overlap the other calls;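 further: 0% = vehicle wells and 100% = reference inhibitor control wells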
# Target sequence (P9WHJ3 whole entry, looked up): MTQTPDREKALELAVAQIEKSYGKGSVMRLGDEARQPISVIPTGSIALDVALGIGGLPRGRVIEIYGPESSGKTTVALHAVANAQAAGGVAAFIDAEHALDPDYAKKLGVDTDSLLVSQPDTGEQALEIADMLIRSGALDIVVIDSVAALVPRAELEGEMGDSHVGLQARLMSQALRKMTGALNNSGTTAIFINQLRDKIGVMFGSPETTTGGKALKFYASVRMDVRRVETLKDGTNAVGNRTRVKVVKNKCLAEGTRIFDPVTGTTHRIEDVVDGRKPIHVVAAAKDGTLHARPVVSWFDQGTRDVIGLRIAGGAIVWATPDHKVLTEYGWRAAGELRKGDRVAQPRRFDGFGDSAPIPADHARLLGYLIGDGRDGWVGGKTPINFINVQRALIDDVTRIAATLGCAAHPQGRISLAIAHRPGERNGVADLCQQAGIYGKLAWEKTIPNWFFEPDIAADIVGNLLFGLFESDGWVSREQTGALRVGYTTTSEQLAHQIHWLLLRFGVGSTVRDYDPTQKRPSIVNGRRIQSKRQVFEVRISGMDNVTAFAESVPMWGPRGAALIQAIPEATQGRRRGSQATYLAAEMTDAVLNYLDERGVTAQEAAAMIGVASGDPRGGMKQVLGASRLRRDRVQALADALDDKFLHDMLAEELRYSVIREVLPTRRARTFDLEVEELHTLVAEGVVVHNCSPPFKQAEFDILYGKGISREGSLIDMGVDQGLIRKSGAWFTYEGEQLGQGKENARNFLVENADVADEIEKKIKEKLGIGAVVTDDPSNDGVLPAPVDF
# YopH inh – blocks Yersinia enterocolitica YopH tyrosine phosphatase; fluorescence Ex485/Em525; inhibition, %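 (about 10 µM by stock and volumes)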; 140,000 compounds, 0.16% hits; AID 898;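 active means inhibition of 50% or more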;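 further: controls were vehicle for no effect and minimum signal wells for full effect; inactives centre near -20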
# Mtb H37Rv – M. tuberculosis H37Rv growth inhibitors, H37Rv strain (AID 1626); one-dose inhibition, % at 10 µM; IC50 in µM for titrated hits; M. tuberculosis H37Rv growth inhibition; higher % means a stronger effect; 220,000 compounds, 0.95% hits;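 active means confirmed in a dose series; inconclusive means inhibition above 80% but not taken into the dose series; inactive means below 80% or under 30% at every dose of the series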;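 further: bacteria incubated seven days before Alamar blue readout; 0% = bacteria only wells and 100% = bacteria with antibiotic wells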
# Arbovirus inh – antivirals against arbovirus infection. 200,000 compounds, 0.37% hits. AID 1251. arbovirus infection cell-based antiviral screen. inhibition, % at 10 µM;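 active means inhibition from about 30%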;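 further: bluetongue infection of BSR cells; cell survival read as ATP light after 72 h; 0% = infected wells without compound and 100% = uninfected wells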
# Mtb bLac sens – beta-lactam sensitization of Mtb H37Rv. M. tuberculosis H37Rv growth with meropenem, percent inhibition; hits of this screen are not shown here. inhibition, % at 25 µM. 330,000 compounds, 0.27% hits. AID 434955;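 active means about 74% or more and at least 40 points above the plate without the antibiotic, then above 30% in a dose series; inconclusive means first-round hits that could not be retested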;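 further: growth measured after seven days incubation then overnight dye step; 0% = bacteria only wells and 100% = bacteria with antibiotic; twin plates without the antibiotic show which effects depend on it; some results filed as inactive read as strong as hits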
# Arbovirus inh repeat – second read-out of Arbovirus inh, no call of its own (marks repeat the call); inhibition, %; measured here: 10K subset replicate screen; many hits read low in the repeat;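 first of two repeat runs on a subset; 0% = infected and 100% = uninfected wells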
# Numbers without * were called inactive; ? = inconclusive; nt = not tested or not shown. An excerpt, so the mix of outcomes need not match the whole.
SMILES,RecA intein inh,YopH inh,Mtb H37Rv,Arbovirus inh,Mtb bLac sens,others
CCCCc1nnc(NC(=O)CSCc2cc(=O)n3ccsc3n2)s1,1.7,nt,nt,nt,-6,
CC1c2ccsc2CCN1S(=O)(=O)c1cccs1 (centres undefined),3.2,nt,-2%,nt,-3,
Cc1ccc(CN2CCN(/N=C/c3sccc3C)CC2)c(C)c1,4.6,14,1%,11,9,
O=C(NCCc1nc2ccccc2[nH]1)/C(=C/c1ccco1)NC(=O)c1ccccc1Br,-0.7,-31,-4%,-1,4,
Cn1c(SCC(=O)Nc2cccc(F)c2)nc2c([nH]c3ccccc32)c1=O,-3.7,nt,11%,-6,-5,
Cc1ccc(NC2=C/C(=N/S(=O)(=O)c3cccs3)c3ccccc3C2=O)cc1,31*,30,?,-30,71,
CCCCNS(=O)(=O)c1ccc2nc(-c3cccnc3)cc(C(=O)NCC(OC)OC)c2c1,-1.5,nt,nt,nt,11,
S=C(Nc1ccc(Cl)cc1)Nc1cccc2cnccc12,6.5,-21,?,12,68,
O=C(Nc1nnc(S(=O)(=O)N2CCCC2)s1)c1cccc([N+](=O)[O-])c1,-2.4,nt,nt,nt,16,
Cc1ccccc1CN(C)CC(=O)Nc1c(C)cccc1C(C)C,0.4,nt,13%,0,-7,
C1=C(c2ccccc2)Nc2ccccc2N=C1c1ccccc1,1.1,-21,11%,5,6,
C/C(=C\C(=O)Nc1nccs1)c1ccccc1,1.2,-20,24%,-1,65,
Cc1ccc(C)c(-n2c(SCC(=O)NC(C(=O)O)C(C)C)nnc2-c2cccc(Cl)c2)c1 (centres undefined),0.2,nt,7%,3,-2,
O=C(Nc1cccc(F)c1)c1cccnc1NCCc1ccccc1,17,-35,44%,-3,10,
Cc1ccccc1Nc1cc(C(=O)NCc2ccco2)c2ccccc2n1,-3.5,-19,7%,-3,5,
COc1ccc(S(=O)(=O)N2CCC(C(=O)N[C@@H](C)C(=O)N3CCCCCC3)CC2)cc1,-0.1,nt,nt,nt,-1,
CCOC(=O)c1oc2nc(C(C)C)c3c(c2c1N)CCC3,-7.6,-30,-11%,-9,7,
N=c1c2c3c(sc2ncn1Cc1ccccc1)CCCC3,1.2,-31,-2%,8,6,
Cc1nc2nc(-c3ccccc3)cc(=O)n2[nH]1,0.3,-18,-1%,0,2,
Cc1cc(N2CCN(S(=O)(=O)c3ccc4ccccc4c3)CC2)n2ncnc2n1,-9.5,nt,0%,15,-14,
COc1ccc(C([O-])=Nc2ccc[n+](-c3nc4ccccc4nc3NS(=O)(=O)c3ccccc3)c2)cc1,3.7,nt,1%,nt,1,
COC(=O)c1cnc(NNC(=O)c2ccc([N+](=O)[O-])cc2)nc1C(F)(F)F,6.6,nt,6%,nt,10,
COc1ccc(C(O)Cc2nc3ccccc3n2C)cc1OC (centres undefined),-1.9,-26,-4%,0,6,
CC(=O)N[C@@H](Cc1c[nH]c2ccccc12)C(=O)NC1CC1,1.4,nt,nt,nt,-4,
Cc1ccc(N(Cc2ccccc2)C(=O)c2cccc(S(=O)(=O)N3CC(C)OC(C)C3)c2)cc1 (centres undefined),11,nt,nt,nt,-12,

# In the list so far, these have a furan ring, fused or not:
SMILES,RecA intein inh,YopH inh,Mtb H37Rv,Arbovirus inh,Mtb bLac sens,others
O=C(NCCc1nc2ccccc2[nH]1)/C(=C/c1ccco1)NC(=O)c1ccccc1Br,-0.7,-31,-4%,-1,4,
Cc1ccccc1Nc1cc(C(=O)NCc2ccco2)c2ccccc2n1,-3.5,-19,7%,-3,5,
CCOC(=O)c1oc2nc(C(C)C)c3c(c2c1N)CCC3,-7.6,-30,-11%,-9,7,

# The results go on.
SMILES,RecA intein inh,YopH inh,Mtb H37Rv,Arbovirus inh,Mtb bLac sens,others
COc1ccc2cc3cc(C(=O)N4CCN(Cc5ccc6c(c5)OCO6)CC4)oc3nc2c1,0.0,-23,nt,3,-9,
COc1cc(C2CC(=O)N3CN(c4ccccc4C)CSC3=C2C#N)cc(OC)c1OC (centres undefined),28,3,2%,4,-4,
CN1CCN(NC(=O)c2cn(-c3ccccc3)nc2-c2cccc(Br)c2)CC1,-6.6,nt,6%,-19,-7,
CCOC1(C(F)(F)F)NC(=O)N(Cc2ccc(OC)cc2)C1=O (centres undefined),0.4,-29,-2%,3,-1,
CCCCOc1ccccc1C1CC(=O)NC2=C1C(=O)CCC2 (centres undefined),-1.9,-33,nt,-7,1,
Cn1c(CS/C(N)=N/N=C/c2ccccc2)c(Br)c(=O)n1-c1ccccc1,2.1,-11,0%,-7,6,
COc1cccc(C2C(C(=O)c3sc(C)nc3C)=C(O)C(=O)N2CCN2CCOCC2)c1 (centres undefined),0.3,-39,1%,-3,-3,
C=CCCCCCCCCc1nc(SCC(=O)O)n[nH]1,-1.9,nt,-1%,nt,-1,
O=C(Nc1ccc(F)cc1)Nc1ccc(NC(=O)c2ccccc2O)cc1,nt,nt,3%,nt,-3,
O=C(Nc1ccccc1)C1=C[C@@H](c2ccc(C(F)(F)F)cc2)C[C@@H](OCCCCO)O1,4.3,nt,1%,nt,3,
COc1ccc(-c2cc(C(F)(F)F)c3c(N)c(C(=O)NCCSC)sc3n2)cc1,-35,nt,nt,nt,0,
COC(=O)[C@H](CC(C)C)NC(=O)NC1CCCCC1C (some centres undefined),-0.3,3,-11%,1,-8,
Fc1ccc(C2C3=C(Nc4ncnn42)c2ccccc2OC3c2ccncc2)cc1 (centres undefined),5.0,-6,2%,0,-5,
CC(NC(=O)C1C2C=CC(C2)C1C(=O)O)c1ccccc1 (centres undefined),2.0,29,-4%,-2,-7,
CSCC[C@H](NC(=O)CCNC(C)=O)c1nc2ccccc2[nH]1,-0.9,-4,-1%,5,-7,
CN(C)CCNC(=O)/C=C/c1cn(-c2ccccc2)nc1-c1cc2ccccc2oc1=O,-1.7,nt,-4%,-27,7,
Cc1cc(-c2ccc(C)c(S(=O)(=O)NCCN3CCC(C)CC3)c2)on1,-2.0,nt,nt,nt,-2,
OCC[C@@H]1C[C@H](O)[C@@H](O)[C@]2(CCCCO2)O1,0.1,nt,-8%,nt,1,
Cc1c(C(c2ccccc2Br)c2c(C)n(C)n(-c3ccccc3)c2=O)c(=O)n(-c2ccccc2)n1C,-0.9,nt,nt,nt,-3,
Cc1cccc(Cc2nnc(CCC(=O)N(C)CCc3ccccc3)o2)c1,2.1,nt,nt,nt,-6,
Cc1cccc2cc(C#N)c(SCCN3CCCCC3)nc12,7.8,-1,-6%,nt,0,
CCCCn1c(N)c(N(CC(C)C)C(=O)c2ccco2)c(=O)[nH]c1=O,0.1,nt,nt,nt,0,
O=C(COc1ccc2c(c1)CCC2)NCc1ccc(Cl)cc1,1.7,-19,13%,5,-1,
Cc1cc(=O)oc2c(CN3CCN(CCO)CC3)c(O)ccc12,-41,nt,nt,nt,2,
CCOC(=O)N1CCC(Nc2c(NCCCN3CCN(c4ccc(OC)cc4)CC3)c(=O)c2=O)CC1,-3.7,nt,8%,nt,1,

# The list continues.
SMILES,RecA intein inh,YopH inh,Mtb H37Rv,Arbovirus inh,Mtb bLac sens,others
O=C1Nc2ccccc2C12OC1CCCCC1O2 (centres undefined),12,-15,6%,-12,92,
CCOc1ccc(N(C(=O)CNS(=O)(=O)c2ccccc2)C(CC)C(=O)NCc2ccco2)cc1 (centres undefined),0.4,nt,5%,11,9,
Cc1cccc(NC(=O)c2c(C)cc(=O)oc2C)n1,-0.7,-45,-8%,-4,-1,
CCS(=O)(=O)N1CCN=C1SCc1ccc(F)cc1,-1.6,nt,nt,nt,-1,
N#Cc1ccc(Sc2ccccn2)c([N+](=O)[O-])c1,-3.4,nt,-5%,nt,-2,
O=C1COc2ccc(NC(=O)N3CCN(c4ccc(F)cc4)CC3)cc2N1,-1.4,-37,0%,3,2,
CCOc1ccc2nc(N=Nc3c(O)[nH]c(=S)[nH]c3=O)sc2c1,2.2,nt,26%,4,5,
NC(=O)c1nsc(C(=O)N(c2ccc(F)cc2)C(C(=O)NCC2CCCO2)c2ccc3ncccc3c2)c1N (centres undefined),-4.2,nt,nt,nt,-4,
Fc1ccc2[nH]c3c(NCCN4CCOCC4)ncnc3c2c1,-0.6,-13,-7%,2,-2,
CCc1cc2c(=O)c(-c3nc4ccccc4n3C)coc2c(CN2CCN(C)CC2)c1O,-5.8,-22,-3%,3,0,
CCn1cc(S(=O)(=O)NCc2ccc3c(c2)OCO3)cn1,0.6,nt,nt,nt,-4,
CCN(CC)CCn1c2c(c(SCC(=O)NCc3ccccc3)nc1=O)CCC2,-1.0,nt,nt,nt,-12,
C=C(C)[C@@H]1CC[C@]2(C(=O)O)CC[C@]3(C)[C@H](CC[C@@H]4[C@@]5(C)CC[C@H](O)C(C)(C)[C@@H]5CC[C@]43C)[C@@H]12,-0.3,nt,12%,nt,11,
CC1CN(C(=O)c2ccccc2)C(=Nc2cccc(S(=O)(=O)N(C)C)c2)S1 (centres undefined),-2.8,-22,9%,10,-8,
CCOC(=O)CNC(=O)CSc1nc(Cc2ccccc2)nc2ccccc12,11,nt,nt,nt,-11,
Cc1ccc(F)cc1NC(=O)N1CCN(c2ccnc3cc(Cl)ccc23)CC1,-1.3,nt,26%,nt,30,
Cc1cccc(OCCn2ccnc2)c1C,-1.4,nt,nt,nt,4,
c1ccc2c(c1)COC(CN1CCCCC1)OC2,1.0,nt,1%,8,0,
Cc1ccc(S(=O)(=O)NCC(=O)N(CC(=O)NCc2ccco2)Cc2ccco2)cc1,0.1,nt,1%,7,2,
Cc1cc(C)c(NC(=O)c2ccc(CNS(=O)(=O)c3cc(C(F)(F)F)ccc3Cl)cc2)c(C)c1,4.2,14,13%,-7,-5,
Cc1cc(=O)oc2cc(O[C@@H]3O[C@H](CO)[C@H](O)[C@H](O)[C@H]3O)ccc12,-0.1,nt,nt,nt,-7,
CCc1nnc(NC(=O)c2c(O)c3c([nH]c2=O)CCCC3)s1,0.3,-16,-3%,-11,13,
O=C1CC(C(=O)N(c2cccc(F)c2)C(C(=O)NC2CCCC2)c2ccccn2)CS1 (centres undefined),-0.9,-43,8%,1,-10,
CCOc1ccc(NS(=O)(=O)c2cc(OCC(N)=O)c(C)cc2Cl)cc1,-1.7,-17,3%,-2,-10,
O=C(O)C1CCN(S(=O)(=O)c2ccc(Oc3ccccc3)cc2)CC1,0.6,-16,-11%,6,2,

# Reprinted from above (4 entries):
SMILES,RecA intein inh,YopH inh,Mtb H37Rv,Arbovirus inh,Mtb bLac sens,others
CCS(=O)(=O)N1CCN=C1SCc1ccc(F)cc1,-1.6,nt,nt,nt,-1,
N#Cc1ccc(Sc2ccccn2)c([N+](=O)[O-])c1,-3.4,nt,-5%,nt,-2,
O=C1COc2ccc(NC(=O)N3CCN(c4ccc(F)cc4)CC3)cc2N1,-1.4,-37,0%,3,2,
CCOc1ccc2nc(N=Nc3c(O)[nH]c(=S)[nH]c3=O)sc2c1,2.2,nt,26%,4,5,

# (list continues)
SMILES,RecA intein inh,YopH inh,Mtb H37Rv,Arbovirus inh,Mtb bLac sens,others
CC(C)N(CC(=O)Nc1ccc(Cl)cc1C(F)(F)F)C(=O)CCl,59*,nt,2%,6,-5,
CCN(CC(=O)Nc1ccc(NC(C)=O)cc1)C(=O)c1oc2ccccc2c1C,-0.5,nt,nt,nt,-10,
O=C(NCCc1cccs1)C1CC(c2cccc(F)c2)=NO1 (centres undefined),1.7,nt,3%,nt,-7,
CC(=O)n1cc(/C=N/NC(=O)c2ccccc2O)c2ccccc21,0.8,nt,nt,nt,-1,
COc1ccc(C2=CC3=C(Br)C(=O)C(C)(OC(=O)c4cccs4)C(=O)C3=CO2)cc1 (centres undefined),-2.0,nt,-5%,nt,-3,
O=C(/C=C/c1ccc([N+](=O)[O-])cc1)NCCc1ccc(F)cc1,0.6,nt,11%,29,5,
O=C(CSc1nnc(CNC(=O)c2ccc(F)cc2)o1)NCCc1ccccc1,1.4,nt,nt,nt,?,
CCS(=O)(=O)N1CCCC(C(=O)NCc2cccnc2)C1 (centres undefined),-1.2,-12,-12%,-3,-15,
CCO[C@@H]1OC(C(=O)N2CCCCCCC2)=C[C@H](c2csc3ccccc23)[C@H]1CCCO,8.2,nt,nt,-15,3,
CCOc1cc(C(=O)N(C)Cc2cc3cc(OC)ccc3[nH]c2=O)cc(OCC)c1OCC,-1.7,9,1%,9,1,
Cc1ccc(C(C(=O)NC2CCCC2)N2CCCCC2)cc1 (centres undefined),2.6,-24,-3%,-2,4,Arbovirus inh repeat=-1
CC(=O)c1cccc(NS(=O)(=O)c2cc3c(cc2C)N(C(C)=O)CCO3)c1,4.5,nt,nt,nt,-6,
CCOc1ccc(CN2CCN(C(=O)c3ccccc3)CC2)cc1,2.8,-1,0%,6,-13,
CCCC1C(c2ccc(OC)cc2)C(C#N)(C#N)C2(C#N)CC1(N)NC2=O (centres undefined),3.9,-50,-15%,1,4,
Cc1cc(SCC(=O)NCC(c2cccs2)N2CCOCC2)c(C)cc1Br (centres undefined),6.0,nt,nt,nt,2,
